RE007 growth inh = less growth of the S. pombe RE007 Vpr strain; S. pombe RE007 Vpr strain, BacTiter-Glo ATP luminescence, 24 h; control for the full effect not named in the record; Potency, µM (series often up to 92.2 µM), without a hit: at the highest dose activity change, negative = less growth; 0.21% of 360,000 active; AID 651644; active = well fitted falling curve with a large enough effect; inconclusive = small, poorly fitted or top-dose-only effect; inactive = no such curve, though single readings can be large or run the other way;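 note: % is set by controls: 0 for no effect and ±100 for the full control effect; nearly all actives have a fitted effect of over 50% in size; the assay follows cell death caused by Vpr and the record does not say whether a fall means rescue or toxicity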
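Fission yeast RE007 carrying one integrated HIV-1 vpr copy, seeded at OD 0.01 in PMG+AL medium with 23 nL pinned compound. Grown 24 h at 30 degrees; viability read by BacTiter-Glo luminescence after 5 min.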
MARV entry inh = blocks Marburg virus binding to or entry into cells; Potency, µM (top dose mostly 37.8 µM), inactives show at the highest dose activity change, negative = inhibition, most hits filed as inhibitors; Marburg virus pseudotyped entry inhibition, cell reporter; control for the full effect not named in the record; about a third of the inactives were read at about 46 µM; 1.8% of 300,000 active; active = well fitted inhibition curve with a large enough effect; inconclusive = small, poorly fitted or top-dose-only effect, or effect the other way; inactive = flat fitted curve, though single readings scatter; tested in HEK293 cells; about a fifth of its hits are not listed in these tables; note: % is set by controls: 0 for no effect and ±100 for the full control effect; luciferase read-out
SARS PLP yeast = inhibitors of SARS-CoV papain-like protease in yeast; Potency, µM (top dose mostly 32.9 µM), inactives show at the top dose activity, positive = growth rescue; 0.19% of 330,000 active; S. cerevisiae expressing SARS-CoV PLpro, growth rescue; control for the full effect not named in the record; active means well fitted rising curve with a large enough effect; inconclusive means small, poorly fitted or top-dose-only effect; inactive means no such curve, though single readings can be large or run the other way; note: 0% is about no effect; nearly all actives have a fitted effect of over 55% in size; growth read by luminescence after 48 h
NS1 inh = blocks influenza NS1 protein function | 0.4% of 270,000 active | Potency, µM (titrated, usually from 46.1 µM), for inactives: at the top dose activity, positive = more growth | S. cerevisiae slowed by influenza A NS1, growth recovery by OD600; active means well fitted rising curve with a large enough effect; inconclusive means small, poorly fitted or top-dose-only effect; inactive means no such curve, though single readings can be large or run the other way; note: nearly all actives have a fitted effect of over 50% in size
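S. cerevisiae expressing influenza A NS1, grown in glucose, washed, then diluted 1:100 into pH 6.0 -URA galactose medium with 23 nl compound. Growth recovery read as OD600; NS1-free strain serves as control.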
2A StopGo = FMDV 2A StopGo reporter, luciferase signal; 1.2% of 410,000 active; AID 1159524; human cells with a luciferase reporter of 2A StopGo recoding; control for the full effect not named in the record; Potency, µM (titrated, usually from 57.9 µM), inactives show at the top dose signal change, negative = less light; active = well fitted falling curve with a large enough effect; inconclusive = small, poorly fitted or top-dose-only effect; inactive = no such curve, though single readings can be large or run the other way; tested in HEK293T cells; note: % is set by controls: 0 for no effect and ±100 for the full control effect; nearly all actives have a fitted effect of over 45% in size; luciferase light after 4 h
Cruzain inh noDet = cruzain (T. cruzi) inhibition without detergent. AID 1476. Potency, µM, for inactives: max response, negative = inhibition, hits mostly inhibitors. purified cruzain, Z-FR-AMC fluorescence, no detergent. P25779. 2.3% of 200,000 active;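 note: plate controls were enzyme without inhibitor for no effect and buffer without enzyme for full effect; nearly all actives have a fitted effect of over 40% in size; top concentration of the series not given in the record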
Target sequence (P25779 123-467 limits assumed): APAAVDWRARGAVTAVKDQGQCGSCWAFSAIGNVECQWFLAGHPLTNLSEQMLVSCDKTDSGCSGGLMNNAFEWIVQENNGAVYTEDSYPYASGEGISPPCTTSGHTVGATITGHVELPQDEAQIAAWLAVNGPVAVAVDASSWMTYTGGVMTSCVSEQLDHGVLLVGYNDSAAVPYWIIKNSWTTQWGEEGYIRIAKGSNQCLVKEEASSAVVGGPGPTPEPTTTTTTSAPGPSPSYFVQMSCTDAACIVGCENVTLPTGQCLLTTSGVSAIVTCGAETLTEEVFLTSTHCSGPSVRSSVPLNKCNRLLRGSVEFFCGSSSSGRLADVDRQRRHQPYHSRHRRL
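Detergent-free condition (0.00005% Triton X-100) in acetate buffer pH 5.5 with DTT. 1.5 nM enzyme and compound were pre-mixed 15 min, then 2 uM Z-FR-AMC substrate added; reaction progress from fluorescence change between first and third reads (60 s).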
LASV entry inh = blocks Lassa virus binding to or entry into cells. Potency, µM (top dose mostly 37.9 µM), for the others: at the top dose activity change, negative = inhibition, most hits filed as inhibitors. 1.2% of 300,000 active. Lassa virus pseudotype entry inhibition, cell reporter; control for the full effect not named in the record; active means well fitted inhibition curve with a large enough effect; inconclusive means small, poorly fitted or top-dose-only effect, or effect the other way; inactive means flat fitted curve, though single readings scatter; tested in HEK293 cells; note: % is set by controls: 0 for no effect and ±100 for the full control effect; nearly all actives have a fitted effect of over 50% in size; luciferase read-out
Cruzain inh Det = blocks cruzain activity in presence of Triton detergent; purified cruzain, Z-FR-AMC fluorescence, 0.01% Triton; Potency, µM, for inactives: max response, negative = inhibition, usual class: inhibitors; 0.43% of 200,000 active; AID 1478;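 note: plate controls were neutral wells for no effect and buffer without enzyme for full effect; nearly all actives have a fitted effect of over 40% in size; top concentration of the series not given in the record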
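In this qHTS format, compounds are incubated with 1.5 nM cruzain for 15 min at room temperature before 2 uM Z-FR-AMC is added. Release of AMC is followed at 360/450 nm, and progress is taken as the 60 s fluorescence difference.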
* marks the source's active call; other numbers are inactive results; ? = inconclusive; . = not tested or not shown; & = joins results of further samples; [ ] = remark or other dose. Unless noted, calls come from the whole dose curve; as a rule, active = well fitted curve in the direction sought with a large enough effect; inconclusive = small, poorly fitted or top-dose-only effect, or another doubt; inactive = no such curve, though single readings can be large; an effect the other way counts as inactive or inconclusive. Potency is the fitted concentration of half-maximal effect.

SMILES | RE007 growth inh | MARV entry inh | SARS PLP yeast | NS1 inh | 2A StopGo | Cruzain inh noDet | LASV entry inh | Cruzain inh Det
COc1ccc(CCN2C(=O)CCC2(C)C(=O)NCc2cccnc2)cc1OC (stereo not given) | 0% | -7% | -2% | -3% | -5% | 1% | 2% | -13%
COC(=O)c1ccccc1NC(=O)CNC(=O)c1ccc(OC)c(OC)c1 | 8% | 1%[46.1 µM] | 0% | -5% | -1% | . | ? | .
COCCOC(=O)/C(=C/c1ccc(OC(=O)c2ccccc2)cc1)C(C)=O | . | ? | -127% | -64% | 28% | ? | -14% | -3.7%
CC(C)c1ccc(C(=O)CC2(O)C(=O)N(CN3CCOCC3)c3ccccc32)cc1 (stereo not given) | -14% | 12% | -3% | -6% | 40%[activator] | 7% | 16% | -2.0%
CN(C)CCCN(CCCNC(=O)/C=N/O)Cc1ccccc1 | 4% | -13% | 5% | 0% | -20% | 1% | 2% | -0.6%
O=C(O)c1cccc(NC2=C(n3nnc4ccccc43)C(=O)c3ccccc3C2=O)c1 | 15% | . | 0% | 1% | -14% | . | . | .
COc1cc2c(c(OC)c1OC)C(c1ccc3c(c1)OCO3)CC(=O)O2 (stereo not given) | 11% | . | 13% | . | -10% | -2% | . | -2.3%
CCn1cc(C(=O)NCCc2ccccc2)c(=O)c2cc(S(=O)(=O)N(C)C3CCCCC3)ccc21 | . | -14%[46.1 µM] | . | . | 34%[activator] | -2% | 23%[46.1 µM] | -2.8%
O=C(NCCCn1ccnc1)c1ccc(Cl)cc1 | 25% | ? | -1% | -1% | -9% | . | 28%[46.1 µM] | .
COC(=O)/C=C(\C)NC(=O)c1ccccc1Cl | -6% | 23% | 0% | -2% | 27% | 4% | 19% | -0.2%
Cc1cc(C)c(NC(=S)NC(CO)(CO)CO)c(C)c1 | 0% | 7% | 2% | 2% | -6% | . | ? | .
CC(C)(C)n1nnnc1C(c1cccnc1)N1CCN(C(=O)c2ccco2)CC1 (stereo not given) | 5% | 17% | -9% | -5% | . | 6% | 10% | 3.8%
CC(=O)c1ccc(N2CCN(S(=O)(=O)c3cc4[nH]c(=O)c(=O)[nH]c4cc3C)CC2)cc1 | 16% | . | . | -4% | 14%&21% | . | 27%[46.1 µM] | .
CCOc1ccc2nc(NC(=O)C3CCCN(S(=O)(=O)c4c(C)noc4C)C3)sc2c1 (stereo not given) | -2% | . | -2% | -75% | ? | . | . | .
Nc1ccc(N2CCN(c3cccc(Cl)c3)CC2)cc1 | -21% | 3% | 4% | ? | 5% | 16µM* | -26% | -5.9%
COc1ccc(CCNc2oc(/C=C/c3ccc(OC)c(OC)c3)nc2C#N)cc1 | . | 9%[46.1 µM] | . | . | -16% | 16µM* | -24%[46.1 µM] | -25%
Cc1ccccc1Cn1nnc2c(=O)[nH]c(C3CCN(C(=O)c4ccccc4Cl)CC3)nc21 | . | 9%[46.1 µM] | . | . | -15% | 20% | -25%[46.1 µM] | -3.1%
Cc1ccc2cccc(OCCCOc3ccccc3F)c2n1 | -27% | . | 0% | -43% | 33%[activator] | . | . | .
CC(OC(=O)c1ccc(-c2ccc([N+](=O)[O-])cc2)o1)C(=O)NC(N)=O (stereo not given) | 2% | 8%[46.1 µM] | 5% | 2% | 0% | . | -8% | .
O=C(Cn1nnc(-c2ccccc2F)n1)Nc1cccc2ncccc12 | -7% | ? | 13% | 2% | -8% | 7% | -11% | 4.1%
Fc1cc(Br)cc(F)c1NC(=S)N1CCOCC1 | 3% | -1% | 4% | -1% | -9% | . | 11% | .
COc1ccc(/C(C)=N/N2C(C)CCCC2C)c(OC)c1 (stereo not given) | -24% | ? | 0% | 6% | -8% | . | ? | .
COCc1cc(C)n(CC(=O)Nc2cccc(C(C)=O)c2)c(=O)c1C#N | . | ? | . | . | -14% | -7% | -1%[46.1 µM] | -2.9%
COCCN(C(=O)COC(=O)c1ccc(C)s1)c1c(N)n(Cc2ccccc2)c(=O)[nH]c1=O | -1% | -7% | ? | . | -24% | . | 20% | .
CC(C)(C)C(=O)NC1(C(F)(F)F)C(=O)Nc2c1c(=O)[nH]c(=O)n2Cc1ccco1 (stereo not given) | 11% | 6%[46.1 µM] | 3% | 5% | 9% | 3% | ? | 1.8%
CCC(CC)c1nn2c(N)c(/C=C3\C(C)=Nc4ccccc43)c(=O)nc2s1 | -6% | -12%[14.2 µM] | -1% | 4% | 7% | . | -1% | .
CC1(C)Cc2cccc(OCC(O)CNCc3ccccn3)c2O1 (stereo not given) | -1% | ? | ? | 2% | -25% | 4% | 18% | 5.0%
O=C(Nc1ccccc1C(=O)O)c1cc(S(=O)(=O)N2CCOCC2)c(Br)s1 | 7% | ? | 2% | 8% | 23% | . | 1% | .
N#CCSc1nc2ccc(N3CCOCC3)cc2c(=O)n1CCc1ccccc1 | -5% | -24% | 7% | -3% | ? | ? | -12% | 2.2%
O=C(CCCOc1ccccc1)NN1C(=O)NC2(CCCCC2)C1=O | 1% | -12% | -3% | . | -3% | . | 12%[46.1 µM] | .
CCCc1nnc(SCC(=O)N2C(C)CCCC2C)n1CC (stereo not given) | 11% | -9%[46.1 µM] | -1% | . | -2% | . | 5%[46.1 µM] | .
Nc1ccccc1Sc1ccc(C(F)(F)F)cc1[N+](=O)[O-] | 1% | ? | -2% | -5% | -12% | . | -27% | .
COc1cc(C2Nc3ccccc3C(=O)N2c2ccccc2OC)ccc1O (stereo not given) | -12% | 1% | -3% | -2% | 13% | 1% | -12% | -3.3%
Cc1ccc(S(=O)(=O)N2CCC(C(=O)C3C(=O)CCCC3=O)CC2)cc1 | 11% | 11%[46.1 µM] | 0% | -1% | -14% | . | 7% | .
CCOc1cc(/C=C2\CCn3c2nc2cc(Cl)ccc2c3=O)ccc1O | 10% | 13%[46.1 µM] | 2% | 22% | -27% | . | ? | .
COc1cc(Cn2c(N)c(C#N)c3nc4ccccc4nc32)cc(OC)c1 | 0% | -3% | 6% | 1% | ? | ? | 12% | ?
CC(C)CC1(C)NC(=O)N(CC(=O)Nc2ccc(F)c(F)c2F)C1=O (stereo not given) | -7% | 1% | -12% | . | 6% | . | ? | .
CC(C)Oc1ccc(CCNC(=O)C2CCC(=O)N(Cc3cccc(F)c3)C2)cc1 (stereo not given) | -13% | -3% | 9% | 8% | 26% | . | -4% | .
CCOC(CNC(=O)CN1C(=O)COc2ccc(S(=O)(=O)N3CCOCC3)cc21)OCC | -7% | . | 0% | 4% | 0% | . | . | .
COc1ccc(OCc2cc(C(=O)N3CCCC(OC)C3)no2)c2ccccc12 (stereo not given) | -14% | -7% | 4% | -33% | 54%[activator] | . | -8% | .
COc1ccc(CCNC(=O)CSc2ccccn2)cc1OC | 2% | ? | 7% | . | -9% | . | 14% | .
CN1CCc2c(C#N)c(N3CCCCC3)nc(N3CCOCC3)c2C1 | 2% | -14%&-14% | . | . | -8% | . | -2% | .
COc1ccc(OC)c(-n2c(O)c(/C=C3\C=Nc4ccccc43)c(=O)[nH]c2=O)c1 | 7% | ? | 3% | 2% | -27% | . | 0%[46.1 µM] | .
CCN(CC(=O)NCc1cccs1)C(=O)c1ccc([N+](=O)[O-])o1 | -1% | 7% | -3% | . | -14% | . | -15%[46.1 µM] | .
COc1ccc(NC(=O)Nc2nnc(N3CCCC3)s2)cc1 | . | 1%[46.1 µM] | . | . | 26% | 10% | -12%[46.1 µM] | -3.7%
Cc1cc(C)n(-c2nc3sc4c(c3c3nnc(SCC(N)=O)n23)CC(C)(C)OC4)n1 | -4% | -32% | -3% | -2% | 0% | 5% | 8% | -8.9%
Cc1ccc(SCC(=O)Nc2cc([N+](=O)[O-])ccc2O)cc1 | -11% | ? | -1% | -6% | 26% | . | ? | .
CCC1CCCCN1S(=O)(=O)c1cc(C(=O)Nc2ccc(C)c(F)c2)ccc1F (stereo not given) | . | . | . | . | ? | -18% | ? | -1.4%
O=C(NCCc1ccccc1)C1CCN(Cc2cccc3ccccc23)CC1 | 7% | ? | -4% | -4% | -13% | . | -6% | .
COc1ccc(C(C)NC(=O)Cc2cccs2)cc1OC (stereo not given) | 8% | . | -3% | 5% | -9% | . | . | .
O=C(NC(=S)Nc1cc([N+](=O)[O-])ccc1O)C1CC1 | 2% | . | 0% | 13% | 8% | . | . | .
COc1ccccc1NC(=O)C1=C(C)Nc2nnnn2C1c1cccc(Br)c1 (stereo not given) | 1%[3.69 µM] | -17% | -17% | 9% | -19% | 3% | 1% | 4.8%
Cc1ccc(-c2cc(C(=O)NCCCN3CCCC3)c3ccccc3n2)cc1C | -5% | 11µM* | 0% | 5% | -15% | . | ? | .
CC1=C(C(=O)Nc2ccccc2)S(=O)(=O)CCO1 | 15% | ? | -2% | 6% | -9% | . | ? | .
COc1ccc(N(C(=O)c2cnccn2)C(C(=O)NC2CCCCC2)c2ccc(O)cc2)cc1 (stereo not given) | 1% | 13% | 0% | -4% | 13% | . | ? | .
COc1ccc(-c2nnc(SCC(=O)NCc3cccs3)n2CC(C)C)cc1 | -3% | 0%[46.1 µM] | -5% | -14% | -17% | 4% | 0% | 3.9%
COc1ccc(Oc2c(C)oc3cc(OC(=O)N(C)C)ccc3c2=O)cc1 | -2% | . | 0% | -3% | -20% | . | . | .
CC(C)(C)c1ccc(C(=O)N2CCC(C(=O)c3ccccc3)CC2)cc1 | 5% | -26% | 0% | -12% | -23% | . | ? | .
COc1ccc(NC(=O)CSc2nccn2Cc2ccc(F)cc2)cc1 | -4% | 3% | -5% | -26% | 0% | . | -5% | .
CCOC(=O)C1C2c3ccccc3O[C@@]1(C)N=C1SCC(=O)N12 (stereo not given in full) | -13% | 10% | 3% | 3% | . | 2% | -2% | 6.4%

Assay outcomes deposited in PubChem by National Center for Advancing Translational Sciences (NCATS).
